StopGo FLuc – lowers the firefly signal of an FMDV 2A StopGo reporter; actives 0.23% (n = 120,000); Potency, µM (doses to about 57.5 µM), for inactives: top-dose signal change, negative = less light; HEK cells with a luciferase reporter of 2A StopGo recoding; active = well fitted falling curve with a large enough effect; inconclusive = small, poorly fitted or top-dose-only effect; inactive = no such curve, though single readings can be large or run the other way; note: nearly all actives have a fitted effect of over 60% in size; overnight with compound
StopGo RLuc – FMDV 2A StopGo reporter, Renilla signal. HEK cells with a luciferase reporter of 2A StopGo recoding. Potency, µM (top dose mostly 57.5 µM), for the others: at the highest dose signal change, negative = less light. actives 0.32% (n = 120,000); active means well fitted falling curve with a large enough effect; inconclusive means small, poorly fitted or top-dose-only effect; inactive means no such curve, though single readings can be large or run the other way; note: nearly all actives have a fitted effect of over 55% in size; overnight with compound
Numbers without * were called inactive; ? = inconclusive; & = joins results of further samples; [ ] = another dose, or the depositor's remark. % is set by controls: 0 for no effect and ±100 for the full control effect; potency is the fitted concentration of half-maximal effect. An excerpt; count on the stated rates, not on these rows.

SMILES | StopGo FLuc | StopGo RLuc
Cc1ccc(CNC(=O)c2c[nH]c3ccc(S(=O)(=O)N4CCOCC4)cc3c2=O)cc1 | -22% | -10%
CCOC(=O)CC(NC(=O)CCc1c(C)nc2ncnn2c1C)c1ccc(OC(C)C)cc1 (stereo unspecified) | -12% | -11%
Cc1ccc(NC(=O)CN(C)C(=O)c2nc(-c3ccccc3)oc2C)cc1 | -10% | -11%
O=C(C1COc2ccccc2O1)N(Cc1cccnc1)c1nc2ccc(Cl)cc2s1 (stereo unspecified) | 132%&-6%[activator] | 22%&-11%
CCCOC(=O)CNC(=O)c1cc(OC)cc(OC)c1 | 11% | 3%
CCC(C)c1ccc(OC)c(-c2csc(N)n2)c1 (stereo unspecified) | 2% | 40%[activator]
NC(=O)c1ccc(COC(=O)c2ccc(Cl)c(Cl)c2)cc1 | -5% | -10%
CCc1cc2c(-c3ccccc3)cc(=O)oc2c2c1OCN(Cc1ccc(F)cc1)C2 | 11% | -9%
CN(C)c1cccc(C(=O)N/N=C2/CCSc3ccc(F)cc32)c1 | 30%[activator] | 41%[activator]
Cn1cc(C(=O)N2CCC(C(N)=O)CC2)c2ccccc21 | -4% | -6%
O=C(NCc1ccccc1)C1CCN(S(=O)(=O)c2ccc3[nH]c(=O)ccc3c2)CC1 | 14% | 16%
CNC(=O)C(C)OC(=O)c1nc(-c2ccccc2)oc1C (stereo unspecified) | 17% | -4%
COCCn1cnnc1SCc1ccc(OC)c(F)c1 | 14% | 10%
CCN(C(=O)Cn1ncc2c(=O)oc3ccccc3c21)c1ccccc1F | -3% | -6%
N#Cc1ccc(CNc2ccccc2Cl)cc1 | 48%[activator] | 3%
COC(=O)[C@H](Cc1ccccc1)NC(=O)NCc1ccccc1 | 3% | 5%
COc1ccc(Cl)cc1NC(=O)c1c(NCc2cccs2)sc2c1CCCC2 | -13% | -5%
CCN1CCN(c2ncc3c(n2)CCN(Cc2cc(Br)cs2)C3)CC1 | 5% | -6%
Cc1ccc(Cl)cc1NC(=O)NC1COc2ccccc2C1 (stereo unspecified) | 126%[activator] | 30%
CC(Sc1ccc(Cl)cc1)C(=O)NCCC(=O)N1CCCC1 (stereo unspecified) | 10% | 5%
COc1ccc(NC(=O)Cn2nnc(-c3cccc(F)c3)n2)cc1S(=O)(=O)N1CCOCC1 | 0% | 8%
COc1ccccc1N1CC(O)=C(c2nc3ccccc3s2)C1=N | 0% | -34%
CS(=O)(=O)N1CCC(NS(=O)(=O)c2ccc(F)cc2Cl)CC1 | -2% | 9%
Cc1ccc(-c2nn3c(-c4ccc(C)cc4)nnc3c3ccccc23)cc1 | 10% | -12%
CCc1ccc(S(=O)(=O)c2cn(C)c3cc(N4CCN(CC)CC4)c(F)cc3c2=O)cc1 | -4% | -9%
Cc1ccc2nc3c(cc(C(=O)NCC4CCCO4)c(=N)n3C(C)C)c(=O)n2c1 (stereo unspecified) | -16% | -15%
COc1ccccc1-c1coc2cc(OC(=O)c3ccccc3Cl)ccc2c1=O | 8% | -5%
COc1ccc(OC)c(NS(=O)(=O)c2cc(-c3cnc(C)o3)ccc2C)c1 | 12% | 239%[activator]
COc1ccc(N/C=C/C(=O)c2ccc(C)c(C)c2)cc1Cl | 48%[activator] | 4%
Cc1csc2nc(COc3ccc(NC(=O)C4CCCCC4)cc3)cc(=O)n12 | 7% | -2%
O=C(Cn1ncc2c3ccccc3n(Cc3ccccc3)c2c1=O)NC1CCCCCC1 | 11% | -4%
CN(C(=O)CCNC(=O)Cn1cnc2ccccc2c1=O)c1ccccc1F | -12% | -9%
CCC(=O)N1CCc2cc(S(=O)(=O)NC(CC(C)C)C(=O)Nc3cccc(C)c3C)ccc21 (stereo unspecified) | -2% | 9%
O=C(CCc1ccccc1Cl)NC1CCN(C2CC2)C1 (stereo unspecified) | -2% | -10%
Cc1ccccc1OCCNN | 0% | -9%[1.06 µM]
O=C(COc1ccccc1)NCC(c1ccc(Cl)cc1)N1CCCCC1 (stereo unspecified) | 4% | 12%
CC1COCCN1C(=O)CCc1nc(Cc2ccccc2)no1 (stereo unspecified) | -6% | -13%
COc1ccc(-n2cc(-c3ccccc3)c3c(NC4CCCC4)ncnc32)cc1 | -21% | -2%
O=C1CSC2(C(=O)N(Cc3ccccc3F)c3ccccc32)N1c1cccc(C(F)(F)F)c1 (stereo unspecified) | -29% | -9%
Cn1c(=O)[nH]c2c(nc(-c3ccc(Cl)cc3)n2CCc2ccccc2)c1=O | -7% | 1%
COc1ccc(Br)cc1CN(C)C(C)c1nnc(-c2ccc(C)cc2)o1 (stereo unspecified) | 219%[activator] | 21%
CCN(CC)CCNc1nc(C)c2c(c1C#N)CCCC2 | -7% | -17%
CCOc1ccccc1NS(=O)(=O)c1ccc2c(c1)CC(C)N2C(=O)C1CCC1 (stereo unspecified) | ? | ?
O=C(OC/C=C/c1ccccc1)c1cc2ccccc2[nH]1 | 47%[activator] | 17%
O=C(OCc1ccccc1)c1ccccc1C(=O)c1ccccc1 | 81%[activator] | 0%
O=C(c1ccc2ccccc2c1)N(Cc1cccs1)C1CC1 | 0% | 321%[activator]
CC(=O)c1cc(Br)ccc1OCc1ccc(Cl)c(Cl)c1 | 250%[activator] | 23%
CCCc1nnc2sc(-c3ccc4c(c3)OCCO4)nn12 | 48%[activator] | -1%
Oc1ccc(C2=CCN(CC(O)COc3ccc(F)cc3)CC2)cc1 (stereo unspecified) | 4% | -13%
Cc1ccc(C(=O)/C=C/c2ccc(/C=C/C(=O)c3ccc(C)cc3)o2)cc1 | 33%[activator] | -4%
Cc1ccccc1OCc1nc2c3cnn(-c4ccccc4Br)c3ncn2n1 | 19% | -10%
COc1ccc(NC(=O)CN2C(=O)CCn3nc(-c4cccn4C)cc32)cc1 | -9% | -16%
CC1=C(C(=O)Nc2ccc(Cl)cc2)C(c2ccncc2)n2ncc(C(=O)Nc3ccccc3)c2N1 (stereo unspecified) | -15% | -12%
CCC(=O)Nc1ccc(OCc2cc(=O)n3cccc(C)c3n2)cc1 | 0% | 10%
CCOc1ccc2cc(-c3nnc(Nc4ccc(C)cc4)s3)c(=O)oc2c1 | -4% | -5%
CC(C)CCNC(=O)c1ccc2nc(Cc3ccccc3)oc2c1 | 15% | 24%
COc1ccc(S(=O)(=O)NCc2ccco2)cc1C(C)(C)C | -1% | -69%
CC(NC(=O)c1ccc(C(C)(C)C)cc1)C(=O)N1CCC2(CC1)NCCc1[nH]cnc12 (stereo unspecified) | -13% | -15%
Cc1ccc(S(=O)(=O)N(C)C)cc1NC(=O)COc1ccc2cc(Br)ccc2c1 | -15% | -22%
Cc1ccc(S(=O)(=O)N2CCC(C(=O)OC(C)C(=O)N3CCCC3)CC2)cc1 (stereo unspecified) | -2% | -8%

The list continues:
SMILES | StopGo FLuc | StopGo RLuc
C=CCc1c(C)[nH]c2c(OC)cccc2c1=S | ? | ?
Cn1c(=O)n(CC(=O)NCc2nnc3n2CCCCC3)c2ccccc21 | 0% | -1%
O=c1oc2ccccc2c(NCc2ccccc2)c1NS(=O)(=O)c1cccc(F)c1 | -12% | 0%
Fc1ccc(CNCCCn2ccnc2)cc1 | 2% | -6%
CC1CCCN(S(=O)(=O)c2ccc(-c3nc(C#N)c(NCc4ccco4)o3)cc2)C1 (stereo unspecified) | -6% | 64%[activator]
O=C(Nc1c(Cl)cccc1Cl)c1cc(-c2cccc(O)c2)on1 | 186%[activator] | 25%
COc1ccccc1CNC(=O)c1nn(-c2ccccc2)c(=O)cc1OC | 26% | 16%
Cc1cccc(-c2cc(=O)c3cc(NC(=O)c4ccccc4C)ccc3o2)c1 | 14% | -6%
Clc1cc(SCc2ccccc2)ccn1 | 32%[activator] | -3%
COc1ccc(-c2cc(C(F)(F)F)nc(-n3nc(C(F)(F)F)cc3C)n2)cc1 | 4% | 10%
CCCn1c2ccccc2c2cnn(CC(=O)NCc3ccc(OC)cc3)c(=O)c21 | -16% | -2%
CCOc1ccc(-c2cc3nc(C4CCN(C(=O)OC(C)(C)C)CC4)c(C(=O)Nc4cccc(Cl)c4C)cn3n2)cc1 | -12% | -5%
Cc1ccc(CNS(=O)(=O)c2cc(C(=O)Nc3cccc(C(F)(F)F)c3)ccc2F)cc1 | -10% | -1%
Cc1ccccc1NC(=O)CSc1nc2c(c(=O)n(C)c(=O)n2C)n1Cc1ccccc1F | 0%&-14% | 0%&-8%
CN(Cc1ccc2ccccc2c1)C(=O)c1ccsc1 | 32%[activator] | -9%
COCCn1c(=O)[nH]c2cc(C(=O)N3CCN(c4ccc(F)cc4)CC3)ccc2c1=O | 48%[activator] | 2%
Cc1ccc(CNC(=O)CCc2c(C)c3cc4c(C)coc4cc3oc2=O)cc1 | 3% | -1%
COc1ccc(CNC(=O)Cc2c(C)c3c(cc(C)c4c(C)coc43)oc2=O)cc1 | -13% | -8%
CC(C)c1ccccc1NC(=O)CCn1cnc2c1c(=O)n(C)c(=O)n2C | -5% | -15%
O=C(CCSc1nc(Cl)nc2nc[nH]c12)NCc1ccccc1Cl | 9% | 98%[activator]
COc1cc(C2=NOC(C(=O)Nc3ccc(OC(F)(F)F)cc3)C2)cc(OC)c1OC (stereo unspecified) | -3% | 10%
CCOc1ccc(S(=O)(=O)c2cn(Cc3ccc(C)cc3)c3ccc(OC)cc3c2=O)cc1 | 8% | 35%[activator]
O=C(O)CNC1CCCC1 | 0% | 15%
CCc1cccc(NC(=O)COC(=O)Cc2cccc3ccccc23)c1 | 0% | 8%
COc1cc(NC(=O)c2cc(Cl)ccc2Cl)ccc1NC(=O)c1cc2ccccc2o1 | 11% | 4%
CC(Sc1ncnc2ccccc12)C(=O)NC(N)=O (stereo unspecified) | 0% | -7%
CC(C)C(CNC(=O)c1cc(=O)c2ccccc2o1)N1CCOCC1 (stereo unspecified) | 11% | -11%
CCc1nnc(SC(CC)C(=O)Nc2cccc(OC)c2)c2cc3oc(C)cc3n12 (stereo unspecified) | 24% | 5%
NC(=O)c1ccc(-c2ccccc2)cc1C(N)=O | 32%[activator] | -1%
COc1cc(-c2nc(-c3ccc4c(c3)[nH]c(=O)n4C)no2)cc(OC)c1OC | -5% | -1%
CC(Oc1ccc(F)cc1)C(=O)Nc1nc(-c2ccc(F)cc2)ns1 (stereo unspecified) | 22µM* | 22µM*
CCOC(=O)N1CCN(Cc2nc3c(c(=O)n(C)c(=O)n3C)n2Cc2cccc(Cl)c2)CC1 | -5% | -7%
COc1ccccc1/C=C/C(=O)OCCN(C)C | 11% | -2%
COc1cc(/C=C(\C)[N+](=O)[O-])c(OC)c2c1OCO2 | ? | ?
COc1cccc(-c2noc(C3CC(=O)N(c4ccc(F)cc4)C3)n2)c1OC (stereo unspecified) | -9% | -2%
CC(C)(CO)NC(=O)C(C)(C)Oc1ccc(Cl)cc1 | 23% | 4%
CCOc1ccc(S(=O)(=O)Nc2ccc(OC)c(Cl)c2)c2cccnc12 | -10% | 277%[activator]
CCc1cccc(C)c1NC(=O)c1ccc2c(c1)CCN2S(=O)(=O)c1ccc(Cl)cc1 | -6% | 6%
CC(C)C(=O)NC(Nc1ccccc1Cl)(C(F)(F)F)C(F)(F)F | 2% | -11%
Fc1ccccc1NC(=S)NC1CC1 | 20% | 7%
Oc1ccc([C@H]2CNCc3c2ccc(O)c3O)cc1O | -12% | -5%
CC(C)C(NC(=O)c1cc(=O)[nH]c2ccc(S(=O)(=O)N3CCOCC3)cc12)c1ccccc1 (stereo unspecified) | 2% | 4%
CCOC(=O)c1ccccc1NC(=O)c1cc2c(s1)-c1c(C)cccc1OC2 | -5% | 9%
O=C(NCCc1ccccc1)C(=O)NCC(c1ccco1)S(=O)(=O)c1cccs1 (stereo unspecified) | -7% | 4%
CC1CCC(NC(=O)C2(C)Cc3ccccc3C(=O)N2Cc2ccc(Cl)cc2)CC1 (stereo unspecified) | 23% | -2%
CCCNC(=O)C(C)NC(=O)C1CCN(c2nc3ccccc3o2)CC1 (stereo unspecified) | 36%[activator] | -7%
Cc1ccc(C)c(NC(c2ccccc2)c2nnc(-c3ccccc3F)o2)c1 (stereo unspecified) | 6% | 80%[activator]
CCc1ccc(NC(=O)CN2CC(CC)Sc3ccccc32)cc1 (stereo unspecified) | 126%[activator] | 117%[activator]
CCCCCCCCS(=O)CCCO (stereo unspecified) | 8% | -6%[1.06 µM]
CCCCn1cc(S(=O)(=O)c2ccc(C)c(C)c2)c(=O)c2cc(F)c(N(CC)CC)cc21 | -8% | 3%
CCN1CCN(Cc2ccccc2CNCc2cccc(C#N)c2)CC1 | -8% | 3%
